Screening results: PubChem BioAssay, Fisher Drug Discovery Resource Center
NPYLR7 ag: mosquito NPYLR7 agonism | HEK293T NPYLR7/Galpha15, GCaMP6s calcium fluorescence | activation, % at 10 µM | hit rate 0.15% among 270,000 | AID 1259423; in the data active means activation above about 40%;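 further: 0% = vehicle and 100% = reference agonist at the receptor; some compounds past the cut are filed as inactive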
NPYLR7 ag max-min: also measured in NPYLR7 ag; calls as there; activation, %; measured here: Max-Min RFU normalised activation; some inactives read as strong as hits;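 span of the calcium signal over five minutes; 0% = vehicle and 100% = native peptide agonist; compound fluorescence can raise it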
Numbers without * were called inactive; & = joins results of further samples.

Start of the data: the first 2 records as a preview:
SMILES	NPYLR7 ag	NPYLR7 ag max-min
C#CCN(Cc1nc(-c2ccc(OC)c(OC)c2)oc1C)C1CCCCC1	5	7
Cc1nn(-c2ccc(F)cc2)c2ncc(C(=O)N3CCN(c4ccccc4)CC3)c(Cl)c12	10	1

This part in full, repeating the preview:
SMILES	NPYLR7 ag	NPYLR7 ag max-min
C#CCN(Cc1nc(-c2ccc(OC)c(OC)c2)oc1C)C1CCCCC1	5	7
Cc1nn(-c2ccc(F)cc2)c2ncc(C(=O)N3CCN(c4ccccc4)CC3)c(Cl)c12	10	1
CC1(Cc2ccc(S(C)(=O)=O)cc2)C(=O)Nc2c(Cl)ccc(Cl)c21 (stereo not drawn)	2	1
COc1ccc(CCN(Cc2sccc2C)C(=O)CN(CCN2CCCC2)C(=O)Nc2ccccc2C(F)(F)F)cc1OC	-14	-7
COc1cc(OC)cc(C(=O)NCC2CCCN(C(=O)CCn3nccc3C)C2)c1 (stereo not drawn)	11	5
CCOC1CCN(C(=O)C(=O)Nc2ccc(-c3ccccc3)cc2)CC1	3	2
COc1nc(-c2ccccc2C)n(-c2ccc(NC(=O)C(Cl)Cl)cc2)n1	21	23
CCSc1ccccc1C(=O)Oc1coc(CSc2nccn2C)cc1=O	-1	-5
CCOC(=O)c1ccc(Nc2nnc(-c3cc4cc([N+](=O)[O-])ccc4oc3=O)s2)cc1	-12	-21
O=C(CC1=CCCCC1)NC1CC(=O)N(CCc2ccccc2)C1 (stereo not drawn)	9	0
CCCc1[nH]n(-c2ccc(Cl)c(Cl)c2)c(=O)c1C1=C([n+]2ccccc2)C(=O)N(c2ccccc2F)C1=O	6	8
CCSc1ccccc1C(=O)NCCn1ncc2c(=O)n(Cc3ccc(C)cc3)cnc21	-3	-8
COc1ccccc1C(=O)Nc1cc(-c2nc3cc(C)ccc3o2)ccc1C	14	11
CC1(NC(=O)c2cnccn2)CCS(=O)(=O)C1 (stereo not drawn)	2	3
COc1ccccc1-n1cc(C2CC(=O)Nc3[nH]ncc32)cn1 (stereo not drawn)	-9	-16
O=C(NCc1cnn2cccnc12)c1ccccc1C1CCNC1 (stereo not drawn)	2	-2
Cc1ccc(C(=O)Nc2c(C)nc3c(C)cccn3c2=O)cc1[N+](=O)[O-]	1	0
C=CCN(Cc1ccccc1F)C(=O)CCn1ncc(=O)c2ccccc21	3	2
NC(=O)CN1CCC(NC(=O)c2cccnc2SC(F)(F)F)CC1	4	1
CNc1nc(-c2ccc(S(C)(=O)=O)cc2)nc2c1CCC2	4	5
COc1ccc(-n2ncc3c2CC(C)(C)CC3NC(=O)CCn2nc(C)cc2C)cc1 (stereo not drawn)	8	2
O=C(NCC1CCCN(Cc2ccon2)C1)c1ccc(-c2ccccc2)cc1 (stereo not drawn)	21&9	4&7
COc1ccccc1N1CCC(CNc2nccc(C(F)(F)F)n2)C1 (stereo not drawn)	2	1
COc1cccc(OCC(=O)OCc2cc(-c3cc4ccccc4o3)on2)c1	-4	-7
CCc1ccc(C2C(C(=O)OCC3CCCO3)=C(C)NC3=C2C(=O)CCC3)cc1 (stereo not drawn)	-1	-4
Cc1ccc(-c2nnc(SCCCC(=O)N3CCC(Cc4ccccc4)CC3)n2-c2ccccc2C)cc1	7	8
CCC(C)N(CC(=O)N(Cc1ccccc1)Cc1sccc1C)C(=O)c1cccc(OC)c1 (stereo not drawn)	5	8
Cc1[nH]c2c(c1C(=O)O)C(=O)CC(c1ccco1)C2 (stereo not drawn)	-4	5
CC1(C)CC2CC(C)(CN2CC(=O)Nc2ccc3c(c2)OCCO3)C1 (stereo not drawn)	0	-2
O=C(CCCSc1ccc(NC(=O)c2ccco2)nn1)Nc1cccnc1	-4	-4
NCc1ccc(Oc2cccc(Cl)c2Cl)cc1	0&-1	-1&-2
COc1ccc(OC)c(-c2nc3ccc(Cl)cn3c2NC2CCCCC2)c1	2	12
CC(=O)OC(C(=O)N1CCN(c2nccc(-c3cccc(C(F)(F)F)c3)n2)CC1)c1ccccc1 (stereo not drawn)	12	5
CCOC(=O)[C@H](CCc1ccccc1)N[C@H]1CCc2ccccc2N(CC(=O)O)C1=O	0&-7&-8	-9&-15&-14
CN(CCN1CCOCC1)c1nc2nonc2nc1NCc1cccs1	7	6
Cc1nc2c(OCc3ccc(C(F)(F)F)cc3)cccn2c1N(C)C(=O)CCC1CCCC1	-10	-14
COc1cccc(C2=NN(C(=O)CN3CCN(C(C)=O)CC3)C(c3ccc(C)cc3)C2)c1 (stereo not drawn)	-3	6
O=S(=O)(Nc1ccc(Cl)cc1)c1ccc2oc(=S)[nH]c2c1	-1	-3
NCCn1ncc2c(N3CCCCCC3)ncnc21	5	4
Nc1ccc2nc(CCc3nc4ccc(N)cc4s3)sc2c1	-4	-6
CCCCn1c(=O)c2c(nc3n2C(C)C(C)=NN3CC(N)=O)n(C)c1=O (stereo not drawn)	0	8
CC(C)c1ccc(NC2CCCN(C(=O)CNS(C)(=O)=O)C2)cc1 (stereo not drawn)	3	2
c1ccc(C2OCCC2NCc2ccccn2)cc1 (stereo not drawn)	-2&11	-3&5
CC(C)c1ncc(S(=O)(=O)NCc2cccc(C#N)c2)[nH]1	5	2
COc1cc2c3c(c1)C(C)=CC(C)(C)N3C(=O)C2=O	3	0

15 structures from above, arranged by molar mass, lowest first.
SMILES	NPYLR7 ag	NPYLR7 ag max-min
c1ccc(C2OCCC2NCc2ccccn2)cc1 (stereo not drawn)	-2&11	-3&5
COc1cc2c3c(c1)C(C)=CC(C)(C)N3C(=O)C2=O	3	0
Cc1[nH]c2c(c1C(=O)O)C(=O)CC(c1ccco1)C2 (stereo not drawn)	-4	5
NCCn1ncc2c(N3CCCCCC3)ncnc21	5	4
NCc1ccc(Oc2cccc(Cl)c2Cl)cc1	0&-1	-1&-2
O=S(=O)(Nc1ccc(Cl)cc1)c1ccc2oc(=S)[nH]c2c1	-1	-3
CC1(C)CC2CC(C)(CN2CC(=O)Nc2ccc3c(c2)OCCO3)C1 (stereo not drawn)	0	-2
CC(C)c1ccc(NC2CCCN(C(=O)CNS(C)(=O)=O)C2)cc1 (stereo not drawn)	3	2
CCCCn1c(=O)c2c(nc3n2C(C)C(C)=NN3CC(N)=O)n(C)c1=O (stereo not drawn)	0	8
CN(CCN1CCOCC1)c1nc2nonc2nc1NCc1cccs1	7	6
O=C(CCCSc1ccc(NC(=O)c2ccco2)nn1)Nc1cccnc1	-4	-4
COc1ccc(OC)c(-c2nc3ccc(Cl)cn3c2NC2CCCCC2)c1	2	12
CCOC(=O)[C@H](CCc1ccccc1)N[C@H]1CCc2ccccc2N(CC(=O)O)C1=O	0&-7&-8	-9&-15&-14
COc1cccc(C2=NN(C(=O)CN3CCN(C(C)=O)CC3)C(c3ccc(C)cc3)C2)c1 (stereo not drawn)	-3	6
Cc1nc2c(OCc3ccc(C(F)(F)F)cc3)cccn2c1N(C)C(=O)CCC1CCCC1	-10	-14

Next section
SMILES	NPYLR7 ag	NPYLR7 ag max-min
COc1ccc(Cl)cc1-c1ccc(/C=C(\C#N)c2nn(CCO)c(N)c2C#N)o1	1	-2
CC1CCCC(NC(=O)NC(=O)CN2CCCC2)C1C (stereo not drawn)	10	16
CC(C)NC(=S)N=Nc1c(O)[nH]c2ccc([N+](=O)[O-])cc12	3	10
CCCn1c(SC2CCN(c3ccccc3F)C2=O)n[nH]c1=O (stereo not drawn)	1	1
c1ccc2c(c1)CC(N1CCCN(Cc3cc4n(n3)CCNC4)CC1)C2	0	1
CCOC(=O)c1cn[nH]c1S(=O)(=O)N1CC=C(c2ccccc2)CC1	1	-6
O=C1CSC(c2ccccn2)N1c1ccc2ccccc2c1 (stereo not drawn)	-3	-8
O=C(Oc1coc(CSc2ncccn2)cc1=O)c1cccs1	-7	0
Fc1cc(F)c(C2c3cccn3CCCN2Cc2ccco2)cc1F (stereo not drawn)	1	6
Cc1cc(N2CCN(C/C=C/c3ccccc3)CC2)n2nc(C(F)(F)F)nc2n1	2	5
Oc1cccc(C2CCN(C3CCC4(CCNCC4)CC3)CC2)c1	5	2
O=C(c1cccc(N2CCOCC2)c1)N1CCCC(CO)(Cc2ccc(F)cc2F)C1 (stereo not drawn)	22	8
Cn1c(=O)[nH]c(=O)c2c1nc(NCCCN1CCOCC1)n2CCCc1ccccc1	5	4
NC(=O)C1CCCN1c1c(F)c(F)c(C(=O)c2ccccc2)c(F)c1F (stereo not drawn)	1	3
Cc1ccc(C)c2[nH]c(=O)c(CCNC(=S)NCCc3ccccc3)cc12	7	6
CN(Cc1noc(C2CCCC2)n1)C(=O)c1cnn2c1CCCC2	6	5
Cc1cc(CNCc2cn(-c3ccc(F)cc3)nc2-c2ccccc2Cl)nn1C	2	-1
Cc1cccc(N2N=NC3C(=O)N(c4ccc5c(c4)CCC5)C(=O)C32)c1 (stereo not drawn)	-2	-5
Cc1ccccc1N1C(=O)CSC1c1ccc(NC(=O)c2ccccc2Cl)cc1 (stereo not drawn)	2	13
Cc1ccc(C(=O)NCCn2ncc3c(=O)n(Cc4cccc([N+](=O)[O-])c4)cnc32)cc1	-5	-9
O=C1SC(Nc2cccc(F)c2)C(=O)N1c1ccccc1 (stereo not drawn)	2	-3
CC(C)(C)n1nc2c(c1NC(=O)c1ccccc1I)CSC2	-3	-5
O=C(CCc1ccccc1)NC1CCN(c2ccccc2C(=O)NCc2ccncc2)CC1	16	18
CCCN1C(=O)C(=Cc2c(NCc3ccco3)nc3c(C)cccn3c2=O)SC1=S	1	1
COc1ccc(CC(=O)N2CCc3cc(C(=O)O)ccc32)c(OC)c1	8&-2	4&-5
O=C(c1cc(=O)c2ccccc2o1)N1CCN(Cc2nnnn2-c2ccccc2)CC1	-4	-5
O=[N+]([O-])c1cc(Cl)ccc1Oc1ccc2ccccc2c1	0	-5
Cc1cccn2c(=O)c3cc(C(=O)NC4CCCC4)n(C)c3nc12	1	2
Cc1ccc(S(=O)(=O)N2CCN(CC(=O)NC3CCCCCC3)CC2)c(C)c1	2	-3
O=C1CC2(CCN(C(=O)OCCc3ccc(F)cc3)CC2)Oc2ccc(F)cc21	-20	-27
CC(C)Cc1nc(CN(C)Cc2cc3n(n2)CCCNC3)no1	12	10
CCc1ccc(NC(=O)Cn2c(-c3nnc(C)o3)cc3ccccc32)cc1	8	4
O=C(c1cnc(CN2CCCC2)s1)N1C[C@@H]2[C@@H]3CC[C@@H](C3)[C@@H]2C1	5	4
C=c1ccccc1=c1[nH]/c(=C\c2ccc(SC)cc2)c(=O)o1	19	20
COc1cc(C=CC(=O)c2ccc3c(c2)OCCO3)cc(Br)c1O	145*	141*
COC(=O)C1CCN(C(=O)c2ccc(-c3cc(-c4cccc5c4OCCO5)[nH]n3)cc2)CC1	-2	6
O=C(OC1CCOC1)c1cn(-c2cccc(C(F)(F)F)c2)nn1 (stereo not drawn)	7	5
Cn1ccnc1C(=O)N1CCOC(COc2ccc3c(c2)CCCC3)C1 (stereo not drawn)	23	18
O=S(=O)(c1cnc[nH]1)N1CCN(c2ccc(F)cc2)CC1	12	12
CC1=Nc2ccccc2C1=Cc1c(N)n2nc(COc3cccc(C)c3)sc2nc1=O	1	0
O=c1c2cc3c(=O)n(-c4ccncc4)ccc3nc2ccn1CCCN1CCOCC1	1	7
COc1ccccc1N1CCN(C(=O)c2cc(C)n3nc(-c4ccccc4)cc3n2)CC1	13	14
Cc1c(CNC(=O)CCS(C)(=O)=O)oc2ccccc12	-12&0	-15&-1
COC(=O)c1c(C)[nH]c(C(=O)C(C)OC(=O)c2occc2C)c1C (stereo not drawn)	12	5
COc1ccc(NS(=O)(=O)c2cc(Cl)cc(Cl)c2)c(C(=O)NCc2ccccc2)c1	-3	-8
O=S(=O)(NCCOc1ccc(-c2ccccc2)nn1)c1ccc2ccccc2c1	-9	-19
Cc1ccc(Nc2cc(C)nc(N3CCN(C(=O)c4cc(C)cc(C)c4)CC3)n2)cc1	10	1
COc1cc2[nH]c(=O)c(CN3CCNC(=O)C3C)cc2c(OC)c1OC (stereo not drawn)	8	5
Cc1cc(C(C#N)C(=O)C2CC2c2ccccc2C(F)(F)F)nc(C)n1 (stereo not drawn)	-1	-6
CCN1CCN(C(=O)C23CCC(C)(C(=O)C2)C3(C)C)CC1 (stereo not drawn)	-1	78
CCc1nn2c(ncc3c(=O)n(-c4ncn[nH]4)ccc32)c1-c1ccc(F)cc1	3	4
CC(=O)CSc1nnc2n1CCN2c1ccc(C)cc1	-2	-3
Cn1nnc2c1CCN(S(=O)(=O)c1ccc(Br)s1)C2	1	2
COCC(C)N=C1NC(=O)C(CC(=O)NCCc2ccccc2)S1 (stereo not drawn)	5	2
CC1(C(=O)O)CCN1C(=O)c1cccc(OC(F)(F)F)c1 (stereo not drawn)	-2	-4
O=C(Nc1n[nH]c(-c2ccccc2F)n1)c1ccnc(Cl)c1	9	5
CC(c1cccc(-c2ccc3nc[nH]c3c2)c1)N(C)C (stereo not drawn)	8&16	8&7
COCC(C)Nc1cnn(-c2ccc(C(=O)OC)cc2)c(=O)c1Cl (stereo not drawn)	8	5
Cc1ccc(-c2nccn2CCc2ccc(S(N)(=O)=O)cc2)o1	-1	15
Cc1nc2scc(C)n2c(=O)c1NC(=O)c1ccccc1I	9	0

Other results follow:
SMILES	NPYLR7 ag	NPYLR7 ag max-min
Cc1[nH]cnc1CSCCNC1CCC2(CCNCC2)CC1	-1	8
COCCCn1cc(C(=O)Nc2nnc(C)s2)c2nn(-c3ccccc3)c(=O)c-2c1	8	8
CCC(NS(=O)(=O)c1ccc(C)cc1)C1c2cc(OC)c(OC)cc2CCN1Cc1ccc(C)cc1 (stereo not drawn)	6	9
O=C(NCCCC(=O)N1CCCC1c1nnc2c(C(F)(F)F)cccn12)OCc1ccccc1 (stereo not drawn)	-5	-16
COCCOC(=NCCCc1ccccc1)NC(=O)c1ccc(Cl)c(Cl)c1	-1	8
CCC(C)c1ccc(NC(=O)CN2C(=O)[C@H]3C[C@H](O)CN3C(=O)c3ccccc32)cc1 (stereo partly drawn)	9	6
CCC(C)C(NC(=O)Nc1cc(OC)cc(OC)c1)C(=O)Nc1nnc(-c2cccc(Cl)c2)s1 (stereo not drawn)	14	2

Only part of the results is shown; count on the stated rates, not on these rows.
